PrP UTR inh: inhibition of PrP 5' UTR reporter expression. cell-based PrP 5' UTR mRNA reporter, plate reader. AID 488862. actives 0.35% (n = 340,000). inhibition, % (concentration not given with the values);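 active = every replicate at 50% or more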;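 note: 0 = median of the neutral control wells; tested in H4 reporter cells; numbers are from one replicate; inactives centre near -14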
Autofluor counter: counter-screen for toxin protease inhibitors: compound fluorescence | fluorescence intensity (concentration not given with the values) | compound autofluorescence counterscreen, microsphere flow cytometry; hits give high values | actives 3.1% (n = 360,000) | AID 624483;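 active = at least 3 SD above the mean of all compounds, about 16000 in these data; inconclusive = too few beads counted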;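 note: 100 nL of 1 mM stock went into each well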
Mtb hypoxia rep: Mtb hypoxia fluorescent reporter inhibition | M. tuberculosis hypoxia-regulated fluorescent reporter, fluorescence | fluorescence inhibition, % (concentration not given with the values) | actives 0.1% (n = 300,000);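 active = 35 to 45% if threefold the growth effect, above 45% if 1.5-fold the growth effect; inactive = the rest, general growth blockers included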;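 note: wells of about 50 µL received 100 nL stock; 0% = vehicle wells and 100% = reference inhibitor wells; whole bacteria with a GFP reporter of the hypoxia response; strong numbers were not always called active; many hits fall short of the cut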
RN4220 kill: S. aureus RN4220 growth inhibition | inhibition, % (test concentration not listed) | actives 0.33% (n = 330,000) | OD600, 16 h;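 active = z-score of -3 or lower and OD600 up to 0.18 on both plates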;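 note: plate controls were untreated cells for no effect and reference antibiotic for full effect; stock transfer was 100 nL into about 80 µL; one replicate is shown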
Sa ugtP lethal: compounds lethal to S. aureus RN4220 ugtP deletion mutant. OD600 growth, 16 h; some inactives read as strong as hits. growth inhibition, % (no concentration beside the values). AID 1259309. actives 0.54% (n = 330,000);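 active = z-score under -3 and OD600 up to 0.15 on both plates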;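 note: plate controls were untreated wells for no effect and antibiotic for full effect; wells of about 80 µL received 100 nL stock; the first replicate is given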
BJeLR viability: BJeLR cell viability loss. inhibition, % (test concentration not listed). AID 1554. BJeLR (HRASV12) viability, CellTiter-Glo ATP luminescence, 48 h; reference of the scale not given here. actives 0.17% (n = 300,000);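 active = replicate mean above 50%; inconclusive = above 50% but judged a plate artefact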;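 note: 50 nL library stock added to about 25 µL; numbers are from one replicate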
Mtb hypoxia rep growth: recorded beside Mtb hypoxia rep, whose call it bears; growth inhibition, %; measured here: M. tuberculosis growth (absorbance);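 0% = vehicle and 100% = reference antibiotic; read after six days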
Numbers without * were called inactive; ? = inconclusive; · = not tested or not shown.

1	NCCCn1cnc2ccccc21
2	Cc1ccccc1C(=O)N1CCN(c2nc(N3CCOCC3)nc(N3CCOCC3)n2)CC1
3	O=C(Nc1ccc(Oc2ccccc2)cc1)N[C@@H](Cc1ccccc1)C(=O)O
4	O=C(CCNC(=O)c1ccccc1Cl)Nc1nc2ccccc2[nH]1
5	NC(=O)[C@@H]1CCCN1Cc1nc(Cc2cccc(C(F)(F)F)c2)no1
6	Cc1ccc2cc(CCNC(=O)c3ccco3)c(=O)[nH]c2c1C
7	O=C(Nc1nnc(-c2ccccc2)o1)Nc1ccc(F)cc1F
8	COc1cccc(NC(=O)CN(C2=NC3CS(=O)(=O)CC3S2)c2cccc(C)c2)c1 (configuration not stated)

Screen / compound no.,1,2,3,4,5,6,7,8
PrP UTR inh,-55.1,4.0,13.1,-20.2,-21.2,-69.4,-10.7,-6.5
Autofluor counter,4071,2814,3161,3495,2258,5788,2408,6226
Mtb hypoxia rep,3.4,·,-0.1,6.1,-3.4,2.9,-12.9,10.4
Mtb hypoxia rep growth,-2.4,·,-2.0,1.1,-2.3,5.2,4.6,6.6
RN4220 kill,0.1,1.4,-2.0,-0.1,1.6,0.8,-2.1,-8.8
Sa ugtP lethal,6.4,5.2,-0.9,3.7,0.0,2.1,-14.2,-5.5
BJeLR viability,1.6,4.7,3.3,·,-2.6,-5.3,2.9,-13.3

9	Cn1nc(-c2ccccc2)c(C(O)c2ccc(Cl)cc2)c1Cl (configuration not stated)
10	O=C(Cn1cc([N+](=O)[O-])cn1)Nc1nc2ccccc2s1
11	O=[N+]([O-])c1ccc(/C=C/C2=NN(c3ccccc3)C(c3ccco3)C2)o1 (configuration not stated)
12	CCC(C)(C(=O)NC1CCCCC1)N(Cc1ccco1)C(=O)c1ccccn1 (configuration not stated)
13	N/C(=N\NC(=O)c1ccc(Cl)cc1)c1cnccn1
14	CCn1cc(C(=O)NCc2ccc3c(c2)OCO3)c2cc(OC)c(OC)cc2c1=O
15	Cn1cc(S(=O)(=O)N2CCC(Cc3ccccc3)CC2)c(=O)n(C)c1=O
16	COC(=O)N/C(C)=C1/NC(=O)c2ccccc2C(c2ccccc2)N1 (configuration not stated)

Screen / compound no.,9,10,11,12,13,14,15,16
PrP UTR inh,-11.0,-25.9,-7.9,41.8,-27.1,-18.9,-8.7,-12.2
Autofluor counter,24423*,10041,12045,6529,6100,3067,5659,2899
Mtb hypoxia rep,2.7,2.8,11.0,4.8,-13.2,·,7.1,10.6
Mtb hypoxia rep growth,3.4,5.1,-0.2,7.6,8.8,·,8.5,8.0
RN4220 kill,4.6,0.4,23.2,2.4,-1.8,-0.3,-7.8,-1.3
Sa ugtP lethal,-3.7,-8.8,23.9,-7.5,-3.0,-0.6,-2.4,1.2
BJeLR viability,-0.2,-1.2,10.1,3.0,-5.9,1.1,12.3,2.7

A draw from above in order of count of non-hydrogen atoms, falling.
14	CCn1cc(C(=O)NCc2ccc3c(c2)OCO3)c2cc(OC)c(OC)cc2c1=O
12	CCC(C)(C(=O)NC1CCCCC1)N(Cc1ccco1)C(=O)c1ccccn1 (configuration not stated)
15	Cn1cc(S(=O)(=O)N2CCC(Cc3ccccc3)CC2)c(=O)n(C)c1=O
9	Cn1nc(-c2ccccc2)c(C(O)c2ccc(Cl)cc2)c1Cl (configuration not stated)
10	O=C(Cn1cc([N+](=O)[O-])cn1)Nc1nc2ccccc2s1
13	N/C(=N\NC(=O)c1ccc(Cl)cc1)c1cnccn1

Screen / compound no.,14,12,15,9,10,13
PrP UTR inh,-18.9,41.8,-8.7,-11.0,-25.9,-27.1
Autofluor counter,3067,6529,5659,24423*,10041,6100
Mtb hypoxia rep,·,4.8,7.1,2.7,2.8,-13.2
Mtb hypoxia rep growth,·,7.6,8.5,3.4,5.1,8.8
RN4220 kill,-0.3,2.4,-7.8,4.6,0.4,-1.8
Sa ugtP lethal,-0.6,-7.5,-2.4,-3.7,-8.8,-3.0
BJeLR viability,1.1,3.0,12.3,-0.2,-1.2,-5.9

Carrying on:
17	CCOCCCNC(=O)c1cn(C)c(=O)c2cc(OC)c(OC)cc12
18	CCNc1cccc2c1C(=O)N(C)C2=O
19	O=c1oc2cc(O)c(Cl)cc2c2ccccc12
20	Cc1ccc(S(=O)(=O)N2CCCN(C(=O)CNC(=O)c3ccccc3)CC2)cc1
21	Cc1cc(C)cc(NC(=O)COC(=O)c2cc(C)oc2C)c1
22	CCN(Cc1ccccc1)CC(O)COc1ccccc1 (configuration not stated)
23	CC1=CC(=C(C#N)c2nc3ccccc3s2)C=C(C)N1c1ccc(F)cc1
24	Cc1ccc(NC(=O)Cn2nc(C(=O)O)c3ccccc3c2=O)cc1S(=O)(=O)N1CCCCCC1

Screen / compound no.,17,18,19,20,21,22,23,24
PrP UTR inh,-1.9,-9.6,-13.8,-4.5,-3.4,-3.4,-17.3,4.7
Autofluor counter,3741,10846,2461,?,4087,4468,3300,5665
Mtb hypoxia rep,·,16.7,6.2,-0.8,1.9,·,7.6,3.3
Mtb hypoxia rep growth,·,9.3,-0.9,0.0,2.4,·,4.5,-3.6
RN4220 kill,-2.8,6.7,4.7,0.8,0.1,0.7,-4.6,4.7
Sa ugtP lethal,2.2,7.2,-9.2,0.1,1.1,4.0,-9.9,2.5
BJeLR viability,-2.2,4.4,-1.5,·,-0.6,-9.5,-4.5,·

25	COc1ccc(CC(=O)NC2CCS(=O)(=O)C2)cc1 (configuration not stated)
26	CCCc1[nH]n(-c2ccc([N+](=O)[O-])cc2)c(=O)c1C=NCCCn1ccnc1
27	CC1CCCC(C)N1C(=O)COC(=O)c1cc(S(=O)(=O)N2CCOCC2)ccc1Cl (configuration not stated)
28	COc1ccc2c3c(c(=O)oc2c1OCC(N)=O)CCCC3
29	COc1ccc(Nc2nc(-c3ccccc3O)nc3ccccc23)cc1
30	COc1ccc(NC(=O)CNC(=O)c2nn(-c3ccc(OC)c(Cl)c3)c(=O)c3ccccc23)c(OC)c1
31	O=C(Nc1cccnc1)c1ccc(Cl)c(S(=O)(=O)N2CCCCC2)c1
32	COc1ccc(CCN=C(N)NS(=O)(=O)c2cccs2)cc1OC

Screen / compound no.,25,26,27,28,29,30,31,32
PrP UTR inh,-17.2,-5.4,-6.2,8.8,·,-19.3,-11.8,-5.8
Autofluor counter,5518,3453,?,2942,3758,3691,5203,2879
Mtb hypoxia rep,-9.2,4.6,-2.7,11.1,6.5,15.1,10.1,1.0
Mtb hypoxia rep growth,2.0,2.5,-6.9,0.9,-6.3,-0.8,2.4,2.9
RN4220 kill,2.6,-2.0,2.1,8.7,61.3,0.0,3.3,6.6
Sa ugtP lethal,0.1,3.2,0.3,-6.4,93.5*,-2.9,3.6,-3.2
BJeLR viability,12.2,2.1,9.3,-2.1,5.3,-0.8,6.4,-2.5

33	CCc1nc(SCC(=O)N2CCCC2)c2c(=O)n(C)c(=O)n(C)c2n1
34	O=C(c1cccs1)N1CCC(c2nc3c(nnn3Cc3cccc(Cl)c3)c(=O)[nH]2)CC1
35	CCn1cc(C(=O)NCc2ccco2)c(=O)c2cc(S(=O)(=O)N3CCCC3)ccc21
36	CC1(C)SC(=S)N(/N=C/c2ccc(O)cc2)C1N(O)C(=O)Nc1ccc([N+](=O)[O-])cc1 (configuration not stated)
37	Cc1no[n+]([O-])c1COc1ccc(/C=C2\NC(=S)NC2=O)cc1
38	CN1CCN(c2nc(-c3ccc(Cl)cc3)cc(=O)[nH]2)CC1
39	N#Cc1ccc(C(CC(=O)O)N2Cc3ccccc3C2=O)cc1 (configuration not stated)
40	COc1cc(C(=O)NCCC(=O)NCc2c(F)cc(F)cc2F)cc(OC)c1OC

Screen / compound no.,33,34,35,36,37,38,39,40
PrP UTR inh,-12.2,-14.2,-19.1,-19.7,-17.2,-11.5,-16.9,3.6
Autofluor counter,7062,3597,4608,?,2225,4524,3702,5815
Mtb hypoxia rep,5.2,-10.0,-0.3,·,·,4.6,5.5,5.1
Mtb hypoxia rep growth,0.5,9.5,-2.4,·,·,5.5,-11.8,10.8
RN4220 kill,3.9,-3.5,-2.4,·,-0.3,-0.1,2.9,2.5
Sa ugtP lethal,6.5,10.5,3.2,·,5.8,0.0,5.0,2.6
BJeLR viability,-8.8,4.1,7.4,5.8,8.2,5.5,3.6,2.1

41	CN(C)c1nc(SCCOC(=O)COc2ccc(Cl)cc2Cl)nc(N(C)C)n1
42	COc1ccc(N(CC(=O)N2CCN(c3ccccc3F)CC2)S(=O)(=O)c2ccc(C)cc2)cc1
43	O=C(O)c1ccc(NC2=C(n3nnc4ccccc43)C(=O)c3ccccc3C2=O)cc1
44	O=C(Nc1ccc2ccccc2c1)c1nn(C23CC4CC(CC(C4)C2)C3)cc1Br
45	O=c1c2cccnc2n(-c2ccccc2)n1Cc1ccc(Cl)cc1
46	COc1cccc(/C=N/NC(=O)C(C)Sc2ccccc2)c1 (configuration not stated)
47	Cc1ccc(Cl)cc1-n1c(SCC(=O)NCCC2=CCCCC2)nc2n[nH]c(C)c2c1=N
48	Cc1cc(C)c(-c2nc3ccccc3s2)[nH]1

Screen / compound no.,41,42,43,44,45,46,47,48
PrP UTR inh,-13.0,-13.4,11.3,-3.2,-24.3,-13.4,-9.0,-64.9
Autofluor counter,7528,6549,3699,23799*,4638,2476,5496,6884
Mtb hypoxia rep,1.7,2.6,·,-2.0,-0.2,·,-6.5,13.2
Mtb hypoxia rep growth,11.2,-1.0,·,7.7,8.4,·,1.0,-5.3
RN4220 kill,11.0,6.3,·,-6.7,-3.2,·,6.8,4.8
Sa ugtP lethal,3.5,5.5,·,16.7,21.6,·,-9.7,-12.3
BJeLR viability,7.0,-0.7,-3.7,2.2,4.4,-0.9,3.5,-9.8

49	O=C(COC(=O)c1cc2c(s1)CCCC2)NCc1ccccc1Cl
50	CCN1C(=O)C2C(c3ccc(-c4cc(C(C)=O)cs4)cc3)N[C@@](Cc3ccccc3)(C(=O)OC)C2C1=O (some centres not stated)
51	Cc1ccc2cc(CN(Cc3ccc4c(c3)OCO4)Cc3nnnn3Cc3ccco3)c(=O)[nH]c2c1
52	O=C(COC(=O)c1c[nH]c(=O)[nH]c1=O)Nc1cccc([N+](=O)[O-])c1
53	CCCCC(CC)COC(=O)c1ccccc1C(=O)OCC(CC)CCCC (configuration not stated)
54	Cn1nnnc1SCC(=O)Nc1ccc(Br)cc1Cl
55	CCc1ccc(NC(=O)NCc2cccnc2)cc1
56	Cc1cccc(C)c1NC(=O)C1=C(O)c2ccccc2N(C)S1(=O)=O

Screen / compound no.,49,50,51,52,53,54,55,56
PrP UTR inh,-20.7,·,-26.0,3.9,-15.3,-19.8,-27.6,9.0
Autofluor counter,2175,·,3271,4214,4270,2497,5538,3952
Mtb hypoxia rep,1.5,2.2,7.9,-8.2,13.5,·,3.2,-2.8
Mtb hypoxia rep growth,2.0,-0.6,16.9,-3.5,3.5,·,-2.4,-1.5
RN4220 kill,0.4,11.2,-8.8,2.3,1.6,6.6,-5.9,8.1
Sa ugtP lethal,-9.6,13.8,-16.5,0.7,9.7,-3.1,2.9,-8.2
BJeLR viability,-4.2,·,-0.4,·,·,2.1,0.2,-2.2

57	COc1ccc(CCNC(=O)CSc2ncn[nH]2)cc1
58	O=C(CSc1ccc(-c2ccco2)nn1)Nc1ccc(F)cc1F
59	O=c1c2ccccc2oc2cc(C#CC3(O)CCCCC3)ccc12
60	O=C(Nc1ccnn1C1CCN(Cc2ccccc2)CC1)c1ccccc1Cl
61	CCOc1cc(NC(=S)NCCOC)c(OCC)cc1NC(=O)c1ccco1
62	C#CC(=O)N(c1cc(OC)ccc1OC)C(C(=O)NC1CCCC1)c1cccs1 (configuration not stated)
63	CCc1ccccc1NC(=O)Cn1nc(C(F)(F)F)c2c1CCC2
64	CCc1ccc(NC(=O)CSc2nnc(-c3n[nH]c4ccccc34)n2-c2ccccc2)cc1

Screen / compound no.,57,58,59,60,61,62,63,64
PrP UTR inh,-1.5,-12.6,69.8*,-2.8,-17.6,-28.9,-7.7,-4.8
Autofluor counter,19819*,5267,3403,4133,2231,7946,2420,2427
Mtb hypoxia rep,-2.9,5.5,-10.1,-2.7,3.7,·,·,0.8
Mtb hypoxia rep growth,6.8,5.8,-14.5,-6.1,1.0,·,·,7.1
RN4220 kill,1.4,3.9,-0.2,5.1,21.1,·,-9.6,1.5
Sa ugtP lethal,-0.3,4.4,1.0,13.3,19.3,·,-0.4,-6.2
BJeLR viability,-16.7,0.3,7.3,3.6,·,14.9,0.0,9.0

Screening results: PubChem, several laboratories
